# High-throughput results: PubChem, several laboratories
# Sa ugtP lethal – kills S. aureus RN4220 lacking UgtP. S. aureus RN4220 ugtP deletion, OD600 growth, 16 h; some inactives read as strong as hits. growth inhibition, % (concentration not given with the values). 330,000 compounds, 0.54% hits. AID 1259309;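 active = z-score under -3 and OD600 up to 0.15 on both plates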;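 note: plate controls were untreated wells for no effect and antibiotic for full effect; wells of about 80 µL received 100 nL stock; the first replicate is given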
# PrP 5UTR inh – suppresses PrP 5' UTR mRNA reporter expression | inhibition, % (concentration not given with the values) | cell-based PrP 5' UTR mRNA reporter, plate reader | 340,000 compounds, 0.35% hits;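 active = every replicate at 50% or more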;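 note: 0 = median of the neutral control wells; tested in H4 reporter cells; numbers are from one replicate; inactives centre near -14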
# Mtb hypoxia rep – Mtb hypoxia fluorescent reporter inhibition; fluorescence inhibition, % (test concentration not listed); 300,000 compounds, 0.1% hits; AID 1159583; M. tuberculosis hypoxia-regulated fluorescent reporter, fluorescence;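 active = 35 to 45% if threefold the growth effect, above 45% if 1.5-fold the growth effect; inactive = the rest, general growth blockers included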;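 note: wells of about 50 µL received 100 nL stock; 0% = vehicle wells and 100% = reference inhibitor wells; whole bacteria with a GFP reporter of the hypoxia response; strong numbers were not always called active; many hits fall short of the cut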
# Autofluor counter – counter-screen for toxin protease inhibitors: compound fluorescence | compound autofluorescence counterscreen, microsphere flow cytometry; stronger effect = higher value | fluorescence intensity (concentration not given with the values) | 360,000 compounds, 3.1% hits | AID 624483;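 active = at least 3 SD above the mean of all compounds, about 16000 in these data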;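 note: 100 nL of 1 mM stock went into each well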
# Sa RN4220 lethal – kills Staphylococcus aureus RN4220. S. aureus RN4220 growth, OD600, 16 h. inhibition, % (test concentration not listed). 330,000 compounds, 0.33% hits;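 active = z-score of -3 or lower and OD600 up to 0.18 on both plates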;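 note: plate controls were untreated cells for no effect and reference antibiotic for full effect; stock transfer was 100 nL into about 80 µL; one replicate is shown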
# BJeLR lethal – kills HRASV12-expressing BJeLR cells | BJeLR (HRASV12) viability, CellTiter-Glo ATP luminescence, 48 h; reference of the scale not given here | inhibition, % (concentration not given with the values) | 300,000 compounds, 0.17% hits | AID 1554;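 active = replicate mean above 50%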;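 note: 50 nL library stock added to about 25 µL; numbers are from one replicate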
# Mtb hypoxia rep growth – further read-out of Mtb hypoxia rep, marked with its call; growth inhibition, %; measured here: M. tuberculosis growth (absorbance);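 0% = vehicle and 100% = reference antibiotic; read after six days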
# Starred values were filed as active, the others as inactive; . = no result given.
SMILES,Sa ugtP lethal,PrP 5UTR inh,Mtb hypoxia rep,Mtb hypoxia rep growth,Autofluor counter,Sa RN4220 lethal,BJeLR lethal
COc1ccc(NC(=S)N2CCN(CCN=CC3=C(O)CC(c4ccccc4)CC3=O)CC2)cc1 (configuration not stated),7,-15,23,3,2287,3.4,-9
Cc1ccc(N2C(=O)N3[C@H](c4cccc(C)c4)[C@@H]4C(=O)N(Cc5ccccc5)C(=O)[C@@H]4[C@]3(C)C2=O)cc1,.,-18,.,.,4150,.,5
C=CCN(C(=O)CNC(=O)c1ccco1)C(C(=O)NC1CCCCC1)c1ccccc1 (configuration not stated),5,-4,.,.,4769,-3.2,6
O=C(NC1CCCCC1)c1cccc(N2C(=O)CCC2=O)c1,4,-3,6,0,5870,1.6,.
Nc1ccc(C#Cc2c(-c3ccsc3)oc3ccc(N4CCOCC4)cc23)cc1,-5,-5,2,8,2858,-11,-5
Cc1ccc(C2(C)NC(=O)N(CC(=O)NCc3ccccc3Cl)C2=O)cc1 (configuration not stated),12,-16,1,3,3643,0.8,-14
Cn1nnc(NC(=O)c2cccc([N+](=O)[O-])c2)n1,7,-18,2,-1,4231,3.0,-1
COC(=O)c1ccc(C(=O)OC)c(NC(=O)CN2CCN(c3ccccc3OC)CC2)c1,-9,-34,1,-2,10213,8.5,3
Cc1cc(C)n(CCCC(=O)O)n1,-4,1,-7,6,3614,-2.2,0
Brc1ccc(OCCOCCOc2cccc3cccnc23)cc1,4,-16,.,.,2441,3.9,3
CC1CN(C(C)CO)C(=O)c2cccc(NS(=O)(=O)c3cn(C)cn3)c2OC1CN(C)C(=O)NC1CCCCC1 (configuration not stated),-2,.,8,11,.,3.0,.
COC(=O)c1sccc1NN=C(C)c1ccc(F)c(Cl)c1,-11,.,6,13,.,2.1,.
Nc1cccc(CCc2nc3cc4ccccc4cc3[nH]2)c1,5,-90,-5,3,10589,-2.8,20
COCCNC(=O)c1ccc(NS(=O)(=O)c2ccc3[nH]c(=O)[nH]c3c2)cc1,11,8,4,5,6238,2.7,-1
Cc1nn(CCCC(=O)NCc2ccccc2Cl)c(=O)c2nccn12,-2,-11,1,-5,5503,-2.7,-16
O=C(Cc1c(Cl)cccc1Cl)Nc1ccncc1Cl,3,-3,-3,3,5724,3.6,7
Cc1nn(C)c(C)c1/C=C1/CC2C3CC=C4CC(O)CCC4(C)C3CCC2(C)C1=O (configuration not stated),5,5,3,10,3731,11,-11
CC(=O)n1cc(N(C(=O)CCl)c2ccc(Cl)cc2)c2ccccc21,95*,.,20,20,4246,58,108*
CCNC(=O)NC(=O)CSc1cccc(C(F)(F)F)c1,6,-2,7,6,9999,6.2,-2
CC(=O)Cc1nsc(Nc2ccc(F)cc2)n1,2,-8,10,3,4372,0.7,.
CCc1nnc(SCC(=O)Nc2nccs2)n1CC,7,3,5,-4,4385,2.1,5
CC(C)(C)c1nnc(NC(=O)C2CCN(c3ncccn3)CC2)s1,12,-28,2,0,21096*,-2.1,-6
CCN1CCN(c2ccc(NC(=O)COc3ccc([N+](=O)[O-])cc3)cc2)CC1,4,1,1,6,5237,0.6,3
CC(=O)Nc1cc2c(nc1C)nc(C)n2Cc1ccc(Br)cc1,1,10,.,.,4797,-1.1,20
COc1ccc2cc(Br)ccc2c1CC(=O)N1CCCC1,5,-29,8,7,3822,-2.2,5

# The final four entries of the part above lead into the next.
SMILES,Sa ugtP lethal,PrP 5UTR inh,Mtb hypoxia rep,Mtb hypoxia rep growth,Autofluor counter,Sa RN4220 lethal,BJeLR lethal
CC(C)(C)c1nnc(NC(=O)C2CCN(c3ncccn3)CC2)s1,12,-28,2,0,21096*,-2.1,-6
CCN1CCN(c2ccc(NC(=O)COc3ccc([N+](=O)[O-])cc3)cc2)CC1,4,1,1,6,5237,0.6,3
CC(=O)Nc1cc2c(nc1C)nc(C)n2Cc1ccc(Br)cc1,1,10,.,.,4797,-1.1,20
COc1ccc2cc(Br)ccc2c1CC(=O)N1CCCC1,5,-29,8,7,3822,-2.2,5
CC(C)Cn1c(SCC(=O)NC(=O)Nc2ccc3c(c2)OCCO3)nc2ccccc2c1=O,-1,-16,7,1,9458,1.7,11
C=CCn1c(SCC(=O)NC23CC4CC(CC(C4)C2)C3)nc2cc(C(=O)O)ccc2c1=O,9,-8,4,6,3829,7.1,18
CCc1sc(NC(=O)COC)nc1-c1ccccc1,6,-10,-3,2,3348,12,0
O=C(Nc1nccs1)c1ccccc1[N+](=O)[O-],0,-21,-2,-12,1950,-3.4,-15
COCCn1nnnc1C(c1ccccn1)N1CCN(c2cc(C)ccc2C)CC1 (configuration not stated),3,-4,12,1,7866,2.0,-11
CCOc1ccc(OCC)c(NC(=O)C2CCCN(S(=O)(=O)c3cnc[nH]3)C2)c1 (configuration not stated),2,0,.,.,3968,2.8,1
COC(=O)Cn1cc(/C=N/NC(=O)COc2cccc3cccnc23)c2ccccc21,.,-8,.,.,2422,.,5
CC(=O)ON=C(N)Cc1ccc(-c2csnn2)cc1,13,.,14,13,.,3.3,.
NC(Cc1nc(-c2ccc(F)cc2)cs1)=NO,11,.,13,4,.,3.9,.
O=C1CCC(=O)N1CCOP1(=O)COc2ccccc2OC1,0,-26,13,1,8741,5.8,10
O=C(C1CCN(S(=O)(=O)c2ccccc2)CC1)N(CCc1ccccc1)Cc1ccco1,12,-29,.,.,4856,-2.7,-11
Cc1cc(NC(=O)Cc2cccs2)no1,-24,-15,12,12,4109,-2.1,.
O=C(Nc1cccc([N+](=O)[O-])c1)c1ccn[nH]1,1,51,5,2,4027,5.6,-3
CCCCC(CC)CNC(=O)CN1C(=O)NC2(CCc3ccccc32)C1=O (configuration not stated),3,-17,2,1,4089,3.4,-3
CC(Oc1ccc2c3c(c(=O)oc2c1)CCC3)C(=O)NCCCn1ccnc1 (configuration not stated),1,3,-6,1,5832,2.1,-4
COc1cc(C(=O)NCCNC(=O)c2cnccn2)cc(OC)c1OC,-2,-30,-4,3,4196,1.5,-2
CC(C)c1ccc(N2C(=O)CC(Sc3nc4ccccc4o3)C2=O)cc1 (configuration not stated),23,-20,5,13,7776,5.0,-3
Cc1ccc(OCC(=O)Nc2sc3c(c2C#N)CCC3)cc1,6,-59,11,6,6686,1.8,-9
COc1cccc(CC(=O)Nc2nccs2)c1,7,-10,5,2,8384,2.4,.
O=c1cc(-c2ccccc2Cl)oc2c(NS(=O)(=O)c3ccccc3OC(F)(F)F)ccc(O)c12,-4,1,-5,4,.,17,-3
COc1ccc(Cl)cc1N(C(C)C(=O)NC1CCCC1)S(C)(=O)=O (configuration not stated),-1,-3,-5,-19,5022,-0.1,0
CC(=O)Nc1ccc(NC(=O)CN(c2ccc(C(C)C)cc2)S(=O)(=O)c2ccccc2)cc1,4,-33,0,4,4418,1.1,-1
COc1cccc(/C=N/NC(=O)c2ccc(-c3ccccc3)cc2)c1O,.,17,.,.,2762,.,6
N#CC(=NNc1ccc([N+](=O)[O-])cc1)C(=N)N1CCCCC1,1,.,42*,5.5*,.,3.6,.
CCCCN1CC[C@H]2C=CC[C@@H](C(=O)NCc3ccc(OC)cc3)[C@H]2C1=O,.,-18,.,.,3502,.,6

# Record cards, from the list above. Order of screens: Sa ugtP lethal | PrP 5UTR inh | Mtb hypoxia rep | Mtb hypoxia rep growth | Autofluor counter | Sa RN4220 lethal | BJeLR lethal
# Record of `CCOc1ccc(OCC)c(NC(=O)C2CCCN(S(=O)(=O)c3cnc[nH]3)C2)c1` (configuration not stated) : 2 | 0 | . | . | 3968 | 2.8 | 1
# Record of `CCCCN1CC[C@H]2C=CC[C@@H](C(=O)NCc3ccc(OC)cc3)[C@H]2C1=O` : . | -18 | . | . | 3502 | . | 6

# The list continues.
SMILES,Sa ugtP lethal,PrP 5UTR inh,Mtb hypoxia rep,Mtb hypoxia rep growth,Autofluor counter,Sa RN4220 lethal,BJeLR lethal
Cc1cc(C(=O)NCc2ccco2)no1,3,-19,7,6,22251*,4.5,-8
COc1ccc(-c2ccnc(-c3ccc(OCCCF)cc3)n2)cc1,6,-21,.,.,5258,-0.5,-1
O=C(c1ccncc1)N1CCc2ccccc2C1,8,0,2,-9,.,2.6,0
CCCCNC(=O)Oc1cccc(N2CCCC2=O)c1,8,-39,.,.,4725,1.1,16
O=C(c1ccc(F)c(S(=O)(=O)N2CCOCC2)c1)N1CCc2ccccc21,4,7,5,9,5697,0.6,0
CS(=O)(=O)c1ccc(Cl)c(NC(=O)CCCc2nc3ccccc3c(=O)[nH]2)c1,1,-13,5,3,5273,1.4,0
C=C(C)CNC(=S)Nc1cccc2cnccc12,9,4,1,11,2544,4.0,-7
Cc1cccc(C)c1OCCn1nnc2ccccc21,17,-13,12,13,3917,4.9,2
O=C(NNC(=O)c1cccs1)c1ccc(Br)cc1,10,-24,7,-7,3668,1.1,-3
CC(=O)NCCn1c(SCc2ccc(C)cc2)nc2ccccc2c1=O,-9,-44,-2,-1,8403,0.0,0
COC(=O)c1ccc(COc2ccc(C=NNC(=O)C(=O)Nc3ccc(OC)cc3)cc2OC)o1,-1,.,5,6,.,4.0,.
Nn1c(Cc2ccccc2F)n[nH]c1=S,-9,-9,1,15,4589,-4.0,5
CCCCSc1nc(C)cc(NC(=S)Nc2ccc(OC)cc2)n1,7,-15,9,16,6589,7.3,-2
CCn1cc(C(=O)O)c(=O)c2cnc(N3CCN(C(=S)NC(=O)c4ccc(Cl)cc4Cl)CC3)nc21,25,-3,-3,-10,6140,40,8
O=C(CSc1nnc(Cc2cc(=O)[nH]c(=O)[nH]2)n1-c1ccc(Cl)cc1)NC1CCCC1,2,18,.,.,4233,-3.6,.
Cc1ccc(-c2nn(-c3ccccc3)cc2C(=O)N2CCOCC2)cc1,12,-24,15,2,3211,4.3,3
COc1cccc(-c2noc(C3CCCN(C(=O)c4ccc(F)cc4)C3)n2)c1 (configuration not stated),8,-3,12,5,2923,1.9,-1
COc1ccc(C2C(C(=O)c3ccc(C)o3)=C(O)C(=O)N2c2cc(C)on2)cc1OC (configuration not stated),-9,-18,1,2,3265,-15,-1
COc1ccc(CN(Cc2cc3cc(C)ccc3[nH]c2=O)C(=O)N(C)C)cc1,8,-15,16,8,4427,7.2,-10
CCCCN1C2CCCC1CC(NC(=O)C1CCCCC1)C2 (configuration not stated),2,-15,-2,-6,8923,4.4,8
Cc1cc(C)n(-c2ccc(C(=O)Nc3cccc([N+](=O)[O-])c3)cc2)n1,-9,-16,-17,-19,5210,-5.3,1
